Bioassay records as filed in PubChem.
Cruzain noTriton: cruzain (T. cruzi) inhibition without detergent | purified cruzain, Z-FR-AMC fluorescence, no detergent | Potency, µM, without a hit: max response, negative = inhibition, most hits filed as inhibitors | 200,000 tested, 2.3% active; active means well fitted curve in the direction sought with a large enough effect; inconclusive means small, poorly fitted or top-dose-only effect, or another doubt; inactive means no such curve, though single readings can be large; an effect the other way counts as inactive or inconclusive;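 further: plate controls were enzyme without inhibitor for no effect and buffer without enzyme for full effect; nearly all actives have a fitted effect of over 40% in size; top concentration of the series not given in the record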
Target sequence (P25779 123-467 limits assumed): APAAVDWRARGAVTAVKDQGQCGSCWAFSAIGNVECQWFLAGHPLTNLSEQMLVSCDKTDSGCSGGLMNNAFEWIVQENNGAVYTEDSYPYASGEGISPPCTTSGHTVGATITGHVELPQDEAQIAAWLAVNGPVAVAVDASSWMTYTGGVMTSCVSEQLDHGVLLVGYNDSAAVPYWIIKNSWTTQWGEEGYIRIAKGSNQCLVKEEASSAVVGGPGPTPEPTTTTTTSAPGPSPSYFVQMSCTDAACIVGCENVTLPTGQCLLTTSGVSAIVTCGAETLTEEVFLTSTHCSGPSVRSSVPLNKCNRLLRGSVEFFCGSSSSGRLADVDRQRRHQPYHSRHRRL
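Detergent-free condition (0.00005% Triton X-100) in acetate buffer pH 5.5 with DTT. 1.5 nM enzyme and compound were pre-mixed 15 min, then 2 uM Z-FR-AMC substrate added; reaction progress from fluorescence change between first and third reads (60 s).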
2A StopGo: FMDV 2A StopGo reporter, luciferase signal; human cells with a luciferase reporter of 2A StopGo recoding; control for the full effect not named in the record; Potency, µM (highest dose often 57.9 µM), without a hit: top-dose signal change, negative = less light; 410,000 tested, 1.2% active; active = well fitted falling curve with a large enough effect; inconclusive = small, poorly fitted or top-dose-only effect; inactive = no such curve, though single readings can be large or run the other way; tested in HEK293T cells; further: on the % scale 0 is the no-effect control and ±100 the full control effect; nearly all actives have a fitted effect of over 45% in size; luciferase light after 4 h
RE007 growth inh: less growth of the S. pombe RE007 Vpr strain; S. pombe RE007 Vpr strain, BacTiter-Glo ATP luminescence, 24 h; control for the full effect not named in the record; Potency, µM (highest dose often 92.2 µM), without a hit: at the top dose activity change, negative = less growth; 360,000 tested, 0.21% active; AID 651644; active = well fitted falling curve with a large enough effect; inconclusive = small, poorly fitted or top-dose-only effect; inactive = no such curve, though single readings can be large or run the other way;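 further: on the % scale 0 is the no-effect control and ±100 the full control effect; nearly all actives have a fitted effect of over 50% in size; the assay follows cell death caused by Vpr and the record does not say whether a fall means rescue or toxicity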
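Fission yeast RE007 carrying one integrated HIV-1 vpr copy, seeded at OD 0.01 in PMG+AL medium with 23 nL pinned compound. Grown 24 h at 30 degrees; viability read by BacTiter-Glo luminescence after 5 min.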
NS1 function inh: influenza NS1 inhibition; AID 2326; S. cerevisiae slowed by influenza A NS1, growth recovery by OD600; 270,000 tested, 0.4% active; Potency, µM (doses to about 46.1 µM), without a hit: at the top dose activity, positive = more growth; further: actives are rising curves; nearly all actives have a fitted effect of over 50% in size
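A cell-based growth assay was used: compounds that relieve NS1-induced slow growth of budding yeast raise OD600. Assay medium was yeast nitrogen base with ammonium sulphate and -URA supplement, pH 6.0, with 2% galactose.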
LASV entry inh: inhibitors of Lassa virus binding or cell entry; Lassa virus pseudotype entry inhibition, cell reporter; control for the full effect not named in the record; Potency, µM (titrated, usually from 37.9 µM), for the others: at the top dose activity change, negative = inhibition, hits mostly inhibitors; 300,000 tested, 1.2% active; AID 540256; active means well fitted inhibition curve with a large enough effect; inconclusive means small, poorly fitted or top-dose-only effect, or effect the other way; inactive means flat fitted curve, though single readings scatter; tested in HEK293 cells; further: on the % scale 0 is the no-effect control and ±100 the full control effect; nearly all actives have a fitted effect of over 50% in size; luciferase read-out
Marburg entry inh: Marburg virus entry inhibition | Marburg virus pseudotyped entry inhibition, cell reporter; control for the full effect not named in the record; about a third of the inactives were read at about 46 µM | Potency, µM (highest dose often 37.8 µM), for the others: top-dose activity change, negative = inhibition, most hits filed as inhibitors | 300,000 tested, 1.8% active; active = well fitted inhibition curve with a large enough effect; inconclusive = small, poorly fitted or top-dose-only effect, or effect the other way; inactive = flat fitted curve, though single readings scatter; tested in HEK293 cells; about a fifth of its hits are not listed in these tables; further: on the % scale 0 is the no-effect control and ±100 the full control effect; luciferase read-out
SARS PLpro yeast: inhibitors of SARS-CoV papain-like protease in yeast. AID 485353. 330,000 tested, 0.19% active. S. cerevisiae expressing SARS-CoV PLpro, growth rescue; control for the full effect not named in the record. Potency, µM (series often up to 32.9 µM), for inactives: at the top dose activity, positive = growth rescue; further: 0% is about no effect; nearly all actives have a fitted effect of over 55% in size; growth read by luminescence after 48 h
Cruzain Triton: blocks cruzain activity in presence of Triton detergent; 200,000 tested, 0.43% active; purified cruzain, Z-FR-AMC fluorescence, 0.01% Triton; P25779; Potency, µM, for inactives: max response, negative = inhibition, actives largely listed as inhibitors; active means well fitted curve in the direction sought with a large enough effect; inconclusive means small, poorly fitted or top-dose-only effect, or another doubt; inactive means no such curve, though single readings can be large; an effect the other way counts as inactive or inconclusive;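 further: plate controls were neutral wells for no effect and buffer without enzyme for full effect; nearly all actives have a fitted effect of over 40% in size; top concentration of the series not given in the record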
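Steps: dispense cruzain (1.5 nM final) in acetate buffer pH 5.5 with DTT and 0.01% Triton X-100; pin-transfer compounds; incubate 15 min RT; add Z-FR-AMC (2 uM final); read fluorescence every 30 s, using the 60 s intensity change.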
* hit, by the source's call; ? = inconclusive; . = not tested or not shown; [ ] = dose if it differs, or a comment. Unless noted, the call rests on the fitted dose curve; in most records, active means well fitted rising curve with a large enough effect; inconclusive means small, poorly fitted or top-dose-only effect; inactive means no such curve, though single readings can be large or run the other way. Potency means the concentration at half of the fitted maximal effect.

SMILES	Cruzain noTriton	2A StopGo	RE007 growth inh	NS1 function inh	LASV entry inh	Marburg entry inh	SARS PLpro yeast	Cruzain Triton
O=[N+]([O-])c1cccc(S(=O)(=O)N2CCCCC2)c1	.	-5.8%	-17.5%	2.5%	.	.	-4.2%	.
O=C(CSCC(=O)NN=Cc1ccccc1)NN=Cc1ccccc1	.	-12.8%	4.5%	.	?	30.6%[46.1 µM]	.	.
COCCNC(=O)c1ccc2c3n(nc2c1)-c1ccc(C)cc1CO3	.	31.6%[activator]	?	-38.5%	.	.	-0.5%	.
CC(=O)N1CCN(CCN=CC2=C(O)CC(c3ccc(Cl)cc3)CC2=O)CC1 (stereo not given)	15.1%	-14.5%	0.5%	-89.7%	-9.3%	?	-4.0%	1.9%
Oc1[nH]c2ccccc2c1N=Nc1c(F)c(F)c(C(F)(F)F)c(F)c1F	.	1.7%	4.2%	2.1%	-0.9%[46.1 µM]	20.5%[46.1 µM]	-1.4%	.
Cc1ccc(C2C3=C(CC(C)(C)CC3=O)Nc3onc(C)c32)cc1 (stereo not given)	-2.9%	-23.7%	-12.4%	-10.0%	-11.8%	?	-6.2%	-8.4%
COc1cc2c(cc1OC)C(c1c(O)n(CCc3ccccc3)c(=S)[nH]c1=O)NCC2 (stereo not given)	.	5.2%	1.6%	?	10.6%[46.1 µM]	7.8%[46.1 µM]	-0.5%	.
CCc1ccc(Nc2cc(C(=O)NCCCN3CCOCC3)c3ccccc3n2)cc1	5.4%	-23.9%	3.8%	-6.8%	.	.	5.6%	-16.9%
COc1ccc(NC(=O)Cc2ccccc2F)cn1	.	31.3%[activator]	1.4%	.	?	9.6%[46.1 µM]	-0.2%	.
COc1nnc(-c2ccc(N3CCOCC3)c(NC(=O)c3ccco3)c2)c2ccccc12	?	-29.8%	0.7%	-59.1%	?	-28.8%	-5.9%	-1.3%
COc1cc(C=NCC2OCCc3ccccc32)cc(OC)c1 (stereo not given)	-4.4%	-12.9%	-4.6%	-35.3%	7.9%	5.0%	-0.3%	-1.7%
Cc1nc2c(-c3ccccc3)c(C)nn2c(C)c1CCC(=O)NCCc1ccccc1	?	-11.9%	.	.	5.6%[46.1 µM]	-3.0%[46.1 µM]	.	-1.7%
Cc1ccc(NC(=O)[C@@H]2CCCN2S(=O)(=O)c2ccccc2F)cc1	.	12.5%	?	-3.6%	1.1%	-21.2%[46.1 µM]	-0.1%	.
O=C1S/C(=C\C=C\c2ccco2)C(=O)N1c1ccc(O)cc1	-16.5%	?	-8.6%	11.0%	?	20.6µM*	-54.3%	-15.6%
CCc1ccc(CC)c(S(=O)(=O)Nc2ccc(O)c(C(=O)O)c2)c1	-11.6%	19.4%	1.1%	-2.1%[9.22 µM]	16.8%	-9.9%	0.5%	-1.5%
Cc1cc(Cl)ccc1OCC(=O)N/N=C1\CCCc2ccccc21	-6.2%	-2.7%	0.6%	1.6%	-10.9%	-11.2%	0.3%	-1.5%
COc1cc(NC(=O)C2CC(=O)N(CCc3ccccc3)C2)cc(OC)c1 (stereo not given)	.	-16.8%	2.7%	.	-15.8%	22.2%[46.1 µM]	-2.0%	.
CC(C)(C)c1ccccc1OCC(O)CN1CCN(c2ccccn2)CC1 (stereo not given)	.	?	-9.8%	-26.4%	.	.	-5.0%	.
CCOC(=O)N1CCC(C(=O)NNC(=O)c2ccc(Cl)cc2Cl)CC1	.	5.4%	-6.2%	7.8%	.	.	-0.4%	.
CCOC(=O)CC(=O)CSc1nc2c(cc1C#N)CCCCC2	-18.3%	57.3%[activator]	-3.4%	11.0%	-25.0%	?	-4.1%	-3.1%

Gathered by group, those above containing a furan ring, fused or not
SMILES	Cruzain noTriton	2A StopGo	RE007 growth inh	NS1 function inh	LASV entry inh	Marburg entry inh	SARS PLpro yeast	Cruzain Triton
COc1nnc(-c2ccc(N3CCOCC3)c(NC(=O)c3ccco3)c2)c2ccccc12	?	-29.8%	0.7%	-59.1%	?	-28.8%	-5.9%	-1.3%
O=C1S/C(=C\C=C\c2ccco2)C(=O)N1c1ccc(O)cc1	-16.5%	?	-8.6%	11.0%	?	20.6µM*	-54.3%	-15.6%

Additional results follow:
SMILES	Cruzain noTriton	2A StopGo	RE007 growth inh	NS1 function inh	LASV entry inh	Marburg entry inh	SARS PLpro yeast	Cruzain Triton
COc1ccc(S(=O)(=O)N(Cc2ccccc2)c2ccccc2C(=O)N2CCOCC2)cc1	.	11.9%	19.0%	-0.8%	.	?	-2.3%	.
O=C(NC(Cc1ccc(F)cc1)C(=O)O)c1ccccc1 (stereo not given)	-9.7%	14.8%	60.5%	5.6%	5.6%	20.8%	1.2%	1.1%
CC(=O)c1ccc(NC(=O)C[n+]2cccc(C)c2)cc1	.	-16.0%	-12.5%	13.6%	.	.	-10.8%	.
Cc1occc1C(=O)O/N=C(\N)c1ccc(Cl)cc1	.	34.4%[activator]	-19.1%	-72.7%	?	?	-20.8%	.
COc1ccc(Nc2ncnc3c2cnn3Cc2ccc(C)cc2)cc1	7.2%	28.2µM*	-3.2%	-0.4%	?	?	-6.9%	-4.4%
Cc1cc(C)cc(C(=O)N2CC(C)SC2=Nc2cccc(S(=O)(=O)N(C)C)c2)c1 (stereo not given)	14.5%	-25.2%	-5.0%	6.1%	?	?	8.9%	-4.5%
CCCCn1c(CN2CCN(C(=O)c3ccco3)CC2)nc2c1c(=O)n(C)c(=O)n2C	9.4%	-17.5%	4.4%	-39.8%	.	.	-21.1%	-2.0%
O=S(=O)(Nc1ccc(N2CCCCC2)cc1)c1ccc(F)cc1	.	-9.1%	-15.4%	-8.3%	.	.	-1.5%	.
COc1cccc(CN(C)CC(=O)NCc2ccc(F)cc2)c1OC	.	-15.2%	-10.6%	0.2%	-14.4%[46.1 µM]	-9.3%[46.1 µM]	2.1%	.
CC(C)C[C@H](NC(=O)c1nc[nH]c1C(=O)N[C@@H](CC(C)C)C(=O)OC(C)(C)C)C(=O)OCc1ccccc1	.	-25.1%	4.1%	15.8%	.	.	4.8%	.
COC(=O)c1cccc(S(=O)(=O)N2CCC(n3nnc4cc(F)ccc43)CC2)c1	13.9%	7.0%	33.2%	-16.0%	-1.0%	?	7.4%	-4.5%
Cc1c(CCC(=O)NCCC(=O)O)c(=O)oc2cc3occ(-c4ccccc4)c3cc12	.	-12.7%	-2.5%	3.1%	.	.	1.3%	.
CC(C)CNc1nc(S(=O)(=O)c2ccccc2)c(Cl)s1	.	-18.8%	-11.3%	.	-26.0%	-0.1%[46.1 µM]	-7.8%	.
CCn1c(SCc2nc3ccccc3c(=O)[nH]2)nnc1C(C)NC(=O)c1ccccc1F (stereo not given)	.	0.3%	-0.5%	-2.9%	0.7%[46.1 µM]	-11.9%[46.1 µM]	1.0%	.
COc1cccc(NC(=O)c2cccnc2)c1	-14.2%	39.5%[activator]	0.0%	-0.2%	1.0%	19.3%	2.9%	1.9%
O=c1c2[nH]c3ccc(F)cc3c2ncn1CCCn1ccnc1	5.0%	-14.2%	3.1%	8.4%	3.7%	-17.2%	-1.4%	-2.4%
COc1ccc(-c2ccc(=O)n(CC(=O)Nc3cccc(O)c3)n2)cc1OC	4.8%	-10.0%	-12.2%	-0.4%	1.3%	-1.2%	-24.0%	0.2%
O=C(Sc1nnnn1C1CCCCC1)c1cccs1	-14.2%	.	.	-4.6%	.	-3.7%	-3.7%	1.5%
CNC(=S)N/N=C/c1ccccc1Cl	-9.4%	17.2%	-2.5%	-2.2%	13.3%	5.9%	5.8%	-5.3%
COC(=O)c1cn(C(=O)c2ccc(OC)c(OC)c2)c2ccccc12	.	21.1%	-1.6%	12.5%	.	.	-10.1%	.
O=C(OCCN1C(=O)c2ccccc2C1=O)c1cccc(OC(F)F)c1	-2.6%	-13.4%	-20.6%	-12.5%	9.0%	?	0.1%	-9.5%
CC(NC(=O)Cn1cnnn1)c1cccc(C(F)(F)F)c1 (stereo not given)	.	4.1%	4.0%	?	20.6%[46.1 µM]	14.6%[46.1 µM]	5.6%	.
CN1C/C(=C\c2ccc(N3CCOCC3)cc2)C(=O)/C(=C/c2ccc(N3CCOCC3)cc2)C1	0.4%	?	0.3%	21.2%	1.6%	?	10µM*	-11.7%
CCOCCn1c2ccccc2c2nc3ccccc3nc21	.	2.1%	12.6%	-2.7%	.	.	-4.0%	.
Cc1ccc(S(=O)(=O)N2CCOC23CCN(C(=O)C(=O)NCCC(C)C)CC3)cc1	.	10.7%	-16.9%	.	-14.7%	10.2%[46.1 µM]	-4.2%	.
CC(C)Cc1nc(SCC(=O)NCc2ccccc2)n[nH]1	-20.9%	6.6%	-6.2%	-32.8%	-0.8%	5.8%[46.1 µM]	3.0%	5.4%
CCN(CC(=O)Nc1cccc(F)c1)CC(=O)Nc1ccccc1OC	.	-20.0%	-2.3%	-0.8%	.	.	0.8%	.
O=C(COc1ccccc1)NCC(=O)N/N=C/c1cc(Br)ccc1OCc1ccccc1	?	0.0%	0.0%	?	?	8.91µM*	-3.5%	-1.3%
COc1ccc(C(=O)CSc2ncn[nH]2)cc1OC	-7.8%	8.2%	-4.0%	5.0%	4.9%	2.1%	-2.8%	-4.4%
COc1ccc(C2N(c3cc(Cl)ccc3OC)C(=O)C3CCCN32)c(OC)c1 (stereo not given)	8.1%	-2.8%	0.9%	-47.8%	.	.	4.2%	-4.2%
COc1ccc(/C=N/NC(=S)Nc2ccccc2)cc1COc1ccc(F)cc1	7.94µM*	-22.3%	-11.5%	?	0.4%	21.1%	-2.7%	-8.9%
Cc1cccc(C(CC(=O)N2CCCC2)c2ccccc2)c1O (stereo not given)	-0.6%	25.9%	-3.0%	-15.9%	-4.6%	-1.0%	-4.5%	-1.6%
Cc1cccnc1NC(=S)NC(=O)c1cncc(Br)c1	0.5%	54.9%[activator]	0.0%	3.1%	8.5%	-22.4%	1.2%	3.2%
COCCn1nnnc1CN1CCOCC1	2.2%	.	-1.1%	3.5%	-9.3%	-12.6%	-3.8%	4.8%
